Ba CapD inh – Bacillus anthracis CapD inhibitors, primary screen, biochemical, fluorescence intensity; z-score (test concentration not listed); 140,000 compounds, 0.23% hits; purified CapD enzyme, fluorescence intensity read-out; stronger effect = lower value; some hits fall short of the stated cut; CapD gamma-glutamyltranspeptidase (Bacillus anthracis Ames Ancestor); AID 492967, 2010;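 active = z-score under -4 in either of two replicates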;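 note: stock transfer was 100 nL into about 40 µL; score is relative to mean and spread of the plate; one replicate is shown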
AID504770 – growth inhibition of E. coli YBA685, primary screen, V. cholerae RctB inhibitors; E. coli YBA685 rctB-dependent plasmid, OD600 growth, 3 h; stronger effect = lower value; z-score (concentration not given with the values); 130,000 compounds, 0.27% hits;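 active = z-score under -2 on both plates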;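 note: wells of about 30 µL received 100 nL stock; score is relative to mean and SD of the test wells; the first replicate is given; strong numbers were not always called active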
Active calls of the source: *; i = inactive; . = not tested or not shown; & = joins results of further samples. An excerpt; count on the stated rates, not on these rows.

Each structure is followed by: Ba CapD inh | AID504770
CC1=CC(C)C(CNc2ccccc2)C(C)C1 (stereo not drawn)
 : . | 0.45
O=S(=O)(NCc1ccco1)c1ccc(S(=O)(=O)N2CCCCC2)cc1
 : . | -0.05
N#Cc1c(=O)c2cccnc2n2c1sc1ccccc12
 : . | 1.8
Cc1ccc(S(=O)(=O)N(C)CC(=O)OCc2nc3ccccc3s2)cc1
 : . | -0.45
O=C(c1ccco1)N1CCCC(c2nc(-c3ccc(S(=O)(=O)NCc4ccccc4)cc3)no2)C1 (stereo not drawn)
 : . | -0.1
CNC(=O)/C=C1/N(C)c2ccccc2C1(C)C
 : . | 1
Cc1[nH]nc2nc(SCC(=O)NCCc3ccc(S(N)(=O)=O)cc3)n(-c3ccc(Br)cc3)c(=N)c12
 : 0.02 | .
N#Cc1cc(-c2ccccc2)cn(Cc2c(Cl)cccc2Cl)c1=O
 : 2.9 | .
CCCCC1C(=O)NC(=Nc2nc(C)c3ccc(OC)cc3n2)NC1=O (stereo not drawn)
 : . | -1.8
C=CCc1ccccc1OCc1cc(=O)n2nc(CC)sc2n1
 : 0.52 | -0.6
CC1CCN(C(=O)COC(=O)c2cccc(I)c2)CC1
 : . | -0.05
Cc1ccc(S(=O)(=O)N2CCCC(C(=O)N3CCCc4ccccc43)C2)cc1 (stereo not drawn)
 : 1.5 | -1.1
Cc1cc2ncc(-c3ccccc3)nc2cc1C
 : 2&3.5 | -0.9&-0.75
C=CCn1c(SCC(=O)NCCCO)nc2sc3c(c2c1=O)CCCC3
 : 2.1 | .
COc1cc2c(cc1OC)C1=NC(=O)CN1C(SCCC(F)=C(F)F)=N2
 : 39 | .
CCOC(=O)c1cc2ccccc2cc1O
 : -0.5 | 0.3
COc1ccc(/C=c2/sc3nc(=O)cnn3c2=O)cc1
 : -0.06 | .
Cc1ccccc1NC(=O)OCc1cccnc1Oc1ccc(Cl)cc1
 : -0.17 | .
CC(=O)N1CCN(C(=O)c2ccc(NCc3ccc(F)cc3)c(S(=O)(=O)Nc3cccc(C(F)(F)F)c3)c2)CC1
 : 2.7 | .
CCOC(=O)c1csc(NC(=O)c2ccc(S(=O)(=O)N3CCc4ccccc43)cc2)n1
 : -0.69 | .
Cc1nc2c(c(=O)c3ccccc3n2C)c(=O)n1Cc1ccco1
 : . | -0.45
Cc1onc(C(C)C)c1C(=O)O
 : . | -0.65
COc1ccccc1C(=O)N1c2ccccc2CCc2ccccc21
 : 2 | .
CS(=O)(=O)N1CCc2cc(NC(=O)c3cccc(C(F)(F)F)c3)ccc21
 : -1.1 | .
O=c1c2c(-c3cccs3)csc2ncn1-c1ccccc1
 : 9.8 | -0.7
CC1=C(C#N)C(c2ccccc2)C2=C(CC(C)(C)CC2=O)N1 (stereo not drawn)
 : 62 | -0.55
CCN(c1ccccc1)S(=O)(=O)c1ccc(N(C)C2CCCCC2)nc1
 : . | -0.05
Cc1ccc(N=CN(C)C=Nc2ccc(C)cc2C)c(C)c1
 : . | -0.4
Cc1cc(CNS(=O)(=O)c2ccc(N3CCOCC3)nc2)c(C(F)(F)F)o1
 : 4.6 | -0.55
CCc1nc2cc(CC(=O)O)ccc2o1
 : -0.43 | -0.85
CCOc1c(Br)cc(C2C(C(=O)OC)=CN(Cc3ccc(OC)c(OC)c3)C=C2C(=O)OC)cc1OC
 : 36 | .
C#CCOc1cccc(C=Nn2cnnc2)c1
 : 5.3 | -2.6
CCC(=O)N1c2ccc(S(=O)(=O)CCC(=O)Nc3ccccc3OC)cc2CC1C (stereo not drawn)
 : 0.08 | -1.3
C(=C\c1ccccc1)/CSc1nnc(COc2ccccc2)n1Cc1ccco1
 : -0.12 | 0.95
CC(C)(C)c1ccc(C(=O)N2N=C(c3ccc([N+](=O)[O-])cc3)CC2(O)C(F)(F)F)cc1 (stereo not drawn)
 : -0.39 | .
N/N=C/C(=N/Nc1ccc(Cl)cc1)C(=O)c1ccc(Br)cc1
 : -0.44 | .
CN(C)CCNc1nc(-c2noc(NCCN(C)C)n2)no1
 : 0.025 | -1.1
O=C(NNC(=O)C(Cc1ccccc1)NS(=O)(=O)c1cccc2nonc12)OCc1ccccc1 (stereo not drawn)
 : -1.5 | .
CC12CCCCC1N(CC(N)=O)c1ccccc12 (stereo not drawn)
 : 0.59 | -1.1
CC(c1ccccc1)n1c(C2CC(=O)N(c3ccccc3)C2)nc2ccccc21 (stereo not drawn)
 : -0.015 | -1.1
Cc1cc(/C=C2/C(=O)NC(=O)N(c3ccccc3)C2=O)c(C)n1-c1ccc([N+](=O)[O-])cc1
 : -0.84 | .
CC1CCC(C(C)C)C(OCC(O)CN2CCc3ccccc3C2)C1 (stereo not drawn)
 : -0.02 | -0.05
CSc1ccc(/C=C2\SC(=O)N(CCNC(=O)CSCc3c(C)noc3C)C2=O)cc1
 : . | 0.4
NC(=O)C1CCN(C(=S)NC2CC3C=CC2C3)CC1 (stereo not drawn)
 : -0.79 | .
COc1ccc(N2CCN(C(=O)C(C)(C)Cc3cc(C)cc(C)c3C(=O)O)CC2)c(OC)c1
 : 0.77 | .
COc1cc(C(C#N)NCc2ccccc2)cc(OC)c1OC (stereo not drawn)
 : -0.29 | .
Cc1cc(=O)nc2c3ccccc3n(CC(=O)N3CCc4ccccc43)n12
 : -0.015 | 1.4
CCC1CCCCN1C(=O)CSc1nc2c(c(=O)n1Cc1ccccc1)SC(C)C2 (stereo not drawn)
 : -0.72 | -0.35
CCN1C(=O)C(O)(CC(=O)c2cc(C)ccc2C)c2ccccc21 (stereo not drawn)
 : 0.5 | 0.55
CCC(C)NC(=O)c1c[nH]c2ccc(S(=O)(=O)N(C)c3cc(C)ccc3C)cc2c1=O (stereo not drawn)
 : 72 | 0
COc1ccc(C(=O)NCC(=O)N2CCN(c3ccc(F)cc3)CC2)cc1
 : 0.73 | -0.25
Cc1ccc(S(=O)(=O)N2CCC(c3nc4cc(C(=O)NCc5ccco5)ccc4n3C3CCCCC3)CC2)cc1
 : 0.035 | 0.75
O=C(CSCc1ccccc1Cl)NC1CCCC1
 : . | -0.45
CC(C)CN(CC(C)C)Cn1nc(-c2ccc3c(c2)OCO3)oc1=S
 : . | -0.15
CCOC(=O)c1c(C)n(CCNC(C)=O)c2cc(Br)c(OC)cc12
 : . | 2.2
COc1ccc(C2CC(=O)N(C)c3ccccc3S2)cc1 (stereo not drawn)
 : 0.64 | 0.05
CC1(C)CC(=O)c2sc(NC(=O)C3CCCCC3)nc2C1
 : i | -0.5
COc1ccccc1-n1c(=O)c2c(n3c(=S)[nH]nc13)-c1ccccc1CC21CCCCC1
 : -0.57 | .
Oc1ccc(Nc2ncnc3ccccc23)cc1
 : . | -0.65
COc1ccc(C2/C(=C(\O)c3ccc(Cl)cc3)C(=O)C(=O)N2CCO)cc1OC (stereo not drawn)
 : 3.3 | .

The closing 7 entries of the section before lead into the next:
Each structure is followed by: Ba CapD inh | AID504770
CC(C)CN(CC(C)C)Cn1nc(-c2ccc3c(c2)OCO3)oc1=S
 : . | -0.15
CCOC(=O)c1c(C)n(CCNC(C)=O)c2cc(Br)c(OC)cc12
 : . | 2.2
COc1ccc(C2CC(=O)N(C)c3ccccc3S2)cc1 (stereo not drawn)
 : 0.64 | 0.05
CC1(C)CC(=O)c2sc(NC(=O)C3CCCCC3)nc2C1
 : i | -0.5
COc1ccccc1-n1c(=O)c2c(n3c(=S)[nH]nc13)-c1ccccc1CC21CCCCC1
 : -0.57 | .
Oc1ccc(Nc2ncnc3ccccc23)cc1
 : . | -0.65
COc1ccc(C2/C(=C(\O)c3ccc(Cl)cc3)C(=O)C(=O)N2CCO)cc1OC (stereo not drawn)
 : 3.3 | .
Cc1cc(C)c2c(n1)nn1c(C)c(CCC(=O)NCCc3ccccc3)c(C)nc21
 : 0.33 | 2.4
CCCn1c(=O)c(C(=O)Nc2nc3ccc(Cl)cc3s2)c(O)c2ccccc21
 : 0.035 | .
Cc1ccc(NC(=O)NC2CCN(C(=O)N3CCOCC3)CC2)cc1
 : . | -0.45
NC(=O)C1CCN(CC2CC=CCC2)CC1 (stereo not drawn)
 : 0.25 | 0.75
C=CCn1cc(/C=C2/NC(=O)N(c3ccccc3)C2=O)c2ccccc21
 : -0.26 | -0.45
CSc1sc(C(=O)NC(=O)Nc2ccc(Cl)cc2)c2c1-c1nocc1CC2
 : 1.5 | -1.3
CCOc1ccc(NC(=O)C2CCN(C(=O)c3ccccc3)CC2)cc1
 : 0.39 | -0.8
Cc1nnsc1C(=O)N1CCCN(c2nc3ccc(Cl)cc3s2)CC1
 : 1.1 | -0.45
O=C(NCCc1ccccc1)C1CCN(c2nc3ccccc3o2)CC1
 : 0.26 | 0.8
Cc1cc(-c2nc(-c3ccc(C(C)(C)C)cc3)no2)no1
 : 0.84 | 0.6
CCC(Sc1nc(C)cc(=O)[nH]1)C(=O)Nc1ccc(Cl)cn1 (stereo not drawn)
 : 1.2 | -0.3
CC(C)n1cc(-c2cc(C(=O)N3CCN(C(c4ccccc4)c4ccccc4)CC3)ccc2[N+](=O)[O-])cn1
 : -0.53 | .
COc1ccc(N2C(=O)CSC2c2cc3c(cc2Br)OCO3)cc1 (stereo not drawn)
 : -0.17 | .
Cn1c(CSC2CN(C(c3ccccc3)c3ccccc3)C2)n[nH]c1=S
 : -0.82 | -0.75
O=C(CSc1nc2ccccc2c(=O)n1NC(=O)c1ccccc1)NCc1ccccc1
 : 0.16 | 0.4
CCN(C(=O)CS(=O)(=O)c1cccc2nsnc12)c1ccc(C)c(C)c1
 : -0.98 | 0.85
Cc1ccc(NC(=O)CNC2CCS(=O)(=O)C2)cc1C (stereo not drawn)
 : . | 1.1
C=CCOc1ccc(CN2CCN(C(=O)c3ccc(CSc4ccc(C(F)(F)F)cn4)o3)CC2)cc1
 : 0.36 | .
Cc1cc(C)c2c(N)c(C(N)=O)sc2n1
 : 0.58 | 0.75
Cc1cc(C)c(C#N)c(SCc2cn3c(C)cccc3n2)n1
 : -0.27 | 0.75
CCNC(=O)Nc1cc(S(C)(=O)=O)ccc1-c1cnn(C(C)C)c1
 : 53 | .
CCOC(=O)c1c(C)n(-c2ccccc2)c2c1cc(OC(=O)Cc1ccccc1)c1ccccc12
 : 0.17 | .
CCn1c(CNC(=O)c2ccncc2)cc2ccccc21
 : . | 1.4
CN(Cc1ccco1)C(=O)c1ccc2c(c1)CC(c1ccccc1)OC2=O (stereo not drawn)
 : . | -0.65
CC(O)(CCO)C12CC3CC(CC(C3)C1)C2 (stereo not drawn)
 : -0.82 | -0.4
O=C(COc1ccccc1)Nc1nc2ccccc2[nH]1
 : . | 1.8
CCOC(=O)C1C(c2ccc(OC)c(OC)c2)C(C(=O)OCC)C(O)(C(F)(F)F)NC1(O)C(F)(F)F (stereo not drawn)
 : 0.15 | .
COc1ccc2c3c([nH]c2c1)C(C)N(CCC(=O)NN)CC3 (stereo not drawn)
 : 16 | .
FC(F)(F)c1ccccc1NC(=S)N1CCC2(CC1)OCCO2
 : -0.29 | -0.7
CCCn1c(N)nc2ccccc21
 : 0.4 | 0.3
CSc1ccncc1C(=O)Nc1cc(Cl)cc(Cl)c1
 : -0.095 | 0.65
COC(=O)c1ccccc1S(=O)(=O)N1CCN(S(=O)(=O)c2cccs2)CC1
 : . | 0.6
CC(C)CSc1ncnc2c1sc1nc3c(cc12)COC(C)(C)C3
 : -0.17 | -1
COc1ccc(S(=O)(=O)Nc2cccc(C(F)(F)F)c2)cc1OC
 : 0.14 | -0.05
O=C(O)[C@@H]1CCCN1C(=O)c1ccccc1F
 : . | 0.3
Cc1nc(-c2cc3cc(Cl)ccc3oc2=O)cc2c1c(=O)oc1ccc(Cl)cc12
 : 1.9 | .
c1ccc2oc(-c3cnc(-c4ccncc4)nc3-c3ccncc3)nc2c1
 : 5.8 | .
Cc1cc(C)c(NC(=O)CSC2=C(C#N)C(c3ccco3)C3=C(CCCC3=O)N2)c(C)c1 (stereo not drawn)
 : 3.5 | .
CC(C)N(C(=O)c1sc2ccccc2c1Cl)C(C)C
 : 0.41 | -0.5
O=C(O)CSCc1ccsc1
 : . | 0
Cc1cc(NC(=O)c2ccno2)no1
 : -0.07 | -0.65
c1ccc(C(OCCN2CCNCC2)c2ccccc2)cc1
 : 0.6 | -0.5
CCN(CC)c1ccc(C=NCCN2CCOCC2)cc1
 : -0.79 | -0.45
COc1ccc(C(=O)Cn2ccnc2C(=O)NCc2ccc(C)cc2)cc1
 : -0.41 | -1.1
O=C(Nc1ccc(-c2nc3ncccc3o2)cc1)c1ccc2c3c(cccc13)CC2
 : 90 | .
CCOC(=O)N/N=C1\CCCc2ccccc21
 : 0.53 | -0.1
COC(=NC1CCCCC1)C(O)c1c[nH]c2ccccc12 (stereo not drawn)
 : 2.2 | .
CCOC(=O)c1c(C)n(-c2ccccc2)c2ccc(OC(=O)c3ccc([N+](=O)[O-])cc3[N+](=O)[O-])cc12
 : -0.09 | .
CN(CC(=O)N1CCCC1)S(=O)(=O)c1ccc2[nH]c3c(c2c1)CCCC3
 : 4.6 | -2
CCOc1cc(/C=C2/SC(=S)NC2=O)cc(Br)c1O
 : 0.06 | -0.45
CC(C)(C)c1cc(Sc2nc(N3CCOCC3)nc(N3CCOCC3)n2)cc(C(C)(C)C)c1O
 : -0.48 | 2.4
COc1sc(/C=N/O)cc1Br
 : -0.2 | .
CCOC(=O)C1CCN(c2ccc([N+](=O)[O-])cc2C(=O)Nc2ccc(OC(F)(F)F)cc2)CC1
 : -0.26 | .
COc1cccc(OC)c1C(=O)N1CCCN(c2nc3ccc(Cl)cc3s2)CC1
 : 0 | -0.65
COc1ccc(-n2nc3c(c2NC(=O)/C=C\c2cc(OC)c(OC)c(OC)c2)CS(=O)(=O)C3)cc1
 : 8.6 | .
COC(=O)c1ccc(CSc2nnc(Cc3cccs3)n2C2CCCCC2)o1
 : . | -0.75

Assay outcomes deposited in PubChem BioAssay by ICCB-Longwood Screening Facility, Harvard Medical School.
